# Bioassay records (PubChem)
# GIV Gai3 FP = inhibitors of GIV peptide binding to Galpha-i3, primary screen, biochemical, fluorescence polarization, FITC-GIV GBA peptide, rat Galphai3; Guanine nucleotide-binding protein G(i) subunit alpha-3 (Rattus norvegicus), P08753; 90 min; active compounds read low; scaled: aluminum fluoride 0%, vehicle 100%; percent of control (FP), % (concentration not given with the values); 210,000 tested, 0.42% active;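 active = replicate mean at 85% of control or lower, very high polarization wells dropped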;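 also: wells of about 15 µL received 100 nL stock; the first replicate is given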
# Target sequence (P08753 whole entry, looked up): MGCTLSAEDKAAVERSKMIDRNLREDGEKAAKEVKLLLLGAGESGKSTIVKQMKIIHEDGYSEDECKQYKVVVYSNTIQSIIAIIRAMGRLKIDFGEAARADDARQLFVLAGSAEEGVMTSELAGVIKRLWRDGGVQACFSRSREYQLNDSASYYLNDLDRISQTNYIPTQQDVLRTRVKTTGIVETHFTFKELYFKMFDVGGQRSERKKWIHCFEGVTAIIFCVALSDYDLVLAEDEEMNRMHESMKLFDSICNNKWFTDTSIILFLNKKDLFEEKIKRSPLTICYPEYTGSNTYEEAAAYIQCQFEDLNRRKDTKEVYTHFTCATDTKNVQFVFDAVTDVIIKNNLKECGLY
# Numbers without * were called inactive. An excerpt. The share of hits here may be higher or lower than overall.
item	structure	GIV Gai3 FP
1	CCCCc1nc2ccccc2c(=O)n1NC(=O)c1c(O)c2ccccc2n(CCC)c1=O	107
2	CCCc1cc(C2CCCN2Cc2cccnc2)no1 (centres undefined)	104
3	CCOc1ccc(CN2CCCC2c2cc(C)no2)cc1 (centres undefined)	98
4	Cn1c(=O)oc2cc(S(=O)(=O)N3CCN(C(=O)c4cc5cc(Cl)ccc5[nH]4)CC3)ccc21	182
5	O=C(Nc1c2c(nn1-c1ccc(F)cc1)CSC2)c1ccc(S(=O)(=O)N2CCCC2)cc1	114
6	Cc1ccn2c(=O)cc(COc3ccc(NC(=O)Nc4cccc(Cl)c4C)cc3)nc2c1	105
7	COCCOC(=O)c1c(C)oc2ccc(OC(=O)c3ccc(OC)c(OC)c3)cc12	104
8	CCc1cc(C2CCCN2C(=O)c2c(Cl)cnn2CC)on1 (centres undefined)	97

# The list goes on:
item	structure	GIV Gai3 FP
9	Cc1nc(-c2ccc(C)c(-n3cc(C(=O)NCc4ccc(Cl)cc4)c(C)n3)c2)no1	103
10	COc1ccc(S(=O)(=O)n2nnc3ccccc32)cc1	109
11	Cc1c(NC(=O)/C(C#N)=C/C=C/c2ccccc2)c(=O)n(-c2ccccc2)n1C	98
12	Cc1[nH]c2ccccc2c1C1(O)C(=O)Nc2ccc(F)cc21 (centres undefined)	106
13	CC(=O)N1CCN(c2nc(C)cc(N3CCCC3)n2)CC1	100
14	O=C1C(=O)N(c2ccc(Br)cn2)C(c2ccc(Br)cc2)/C1=C(/O)c1ccccc1 (centres undefined)	110
15	CC(C)(C)c1ccc(/C=c2\sc3nnc(-c4ccccc4)n3c2=O)cc1	110
16	CC(C)N1CCC2=C(C1)C1(C(=O)Nc3ccccc31)C(C#N)(C#N)C(N)=C2C#N (centres undefined)	122

# Next results.
item	structure	GIV Gai3 FP
17	COc1ccc(OC)c(C2Nc3ccc4ccccc4c3C3=C2C(=O)CC(C)(C)C3)c1 (centres undefined)	105
18	CC1=C(C(=O)Nc2ccccc2)C(c2ccncc2)C(C#N)=C(SCc2ccccc2)N1 (centres undefined)	120
19	CC1(C)CC(=O)C2=C(C1)N(c1ccc(O)cc1)C(=O)CC2c1ccc(Cl)cc1 (centres undefined)	104
20	Cc1ccc(NS(=O)(=O)c2cc(S(=O)(=O)Nc3ccc(C)cc3C)c3cccc4c3c2NC4=O)c(C)c1	103
21	Cc1cc(Cl)ccc1NS(=O)(=O)c1ccc2c(c1)c(=O)n(CC(=O)N1CCCC1)c(=O)n2C	101
22	CC(C)(C)c1ccc(O)c(CN2CCCC2)c1	101
23	Cc1nn(-c2ccccc2)c(N2CCC(C(=O)NC3CCCCC3)CC2)c1NC(=O)C(C)C	103
24	CCOC(=O)C1=C(C)NC2(O)c3ccccc3C(=O)C12O (centres undefined)	103

# The final 6 compounds of the part above lead into the next.
item	structure	GIV Gai3 FP
19	CC1(C)CC(=O)C2=C(C1)N(c1ccc(O)cc1)C(=O)CC2c1ccc(Cl)cc1 (centres undefined)	104
20	Cc1ccc(NS(=O)(=O)c2cc(S(=O)(=O)Nc3ccc(C)cc3C)c3cccc4c3c2NC4=O)c(C)c1	103
21	Cc1cc(Cl)ccc1NS(=O)(=O)c1ccc2c(c1)c(=O)n(CC(=O)N1CCCC1)c(=O)n2C	101
22	CC(C)(C)c1ccc(O)c(CN2CCCC2)c1	101
23	Cc1nn(-c2ccccc2)c(N2CCC(C(=O)NC3CCCCC3)CC2)c1NC(=O)C(C)C	103
24	CCOC(=O)C1=C(C)NC2(O)c3ccccc3C(=O)C12O (centres undefined)	103
25	Cc1ccc(-c2nc3s/c(=C/c4ccc(-c5ccc(Br)cc5)o4)c(=O)n3n2)cc1	110
26	Cc1sc(-c2cc(C(F)(F)F)on2)cc1S(=O)(=O)NCc1ccc(N(C)C)cc1	101
27	CC(C)(C)NC(=O)c1ccc(-c2ccc(F)cc2)nc1	108
28	COc1ccc(C2=CC(c3ccccc3Cl)NC(=S)N2)cc1 (centres undefined)	120
29	NS(=O)(=O)c1ccc(CCn2c(SCc3c(F)cccc3F)nc3ccccc3c2=O)cc1	106
30	O=S(=O)(c1cc(-c2noc(C3CC3)n2)cs1)N1CCN(c2ccc(Cl)cc2)CC1	104
31	OC(CN1CCCCC1)Cn1c2ccccc2c2ccccc21 (centres undefined)	114
32	COc1cc(-n2c(C)nc3cc(C(=O)NC4CCCCCC4)ccc32)cc(OC)c1OC	101

# More entries.
item	structure	GIV Gai3 FP
33	CN(c1ccc(Br)cc1)S(=O)(=O)c1ccc2[nH]cc(C(=O)NC3CCCCCC3)c(=O)c2c1	103
34	Cc1cc(C2CCCN2C(=O)c2cc(-c3ccc4c(c3)OCO4)on2)on1 (centres undefined)	103
35	Cc1[nH]c(C)c(S(=O)(=O)NC2CCCC2)c1-c1nnc(C2CC2)o1	110
36	CCCCCNC(=O)c1ccc2c(c1)[nH]c(=S)n1c3ccccc3nc21	110
37	COc1cc(-c2nc3sc4c(c3c(=O)[nH]2)CCCC4)ccc1OCCOc1cc(C)ccc1C(C)C	104
38	O=C(CSc1nc2ccccc2c(=O)n1CC1COc2ccccc2O1)N1CCN(c2ccccc2)CC1 (centres undefined)	109
39	Cc1ccc(-n2c(N3CCCC(C(=O)NCCCOC(C)C)C3)nc3ccsc3c2=O)cc1 (centres undefined)	105
40	COc1cc(OC)c(NC(=O)CSc2nc3n[nH]c(C)c3c(=N)n2-c2cccc(C)c2)cc1Cl	104

# The list goes on:
item	structure	GIV Gai3 FP
41	O=C(CN1CCCN(Cc2ccccc2Cl)S1(=O)=O)NCc1ccc(Cl)cc1	110
42	O=C(Nc1ccc2c(c1)OCCO2)c1cccc(Nc2ncc(-c3ccc(F)cc3)cn2)c1	104
43	Cc1cc(NS(=O)(=O)c2cc(-c3nc(C(C)(C)C)cs3)cs2)ccc1F	108
44	COc1ccc2c(c1)-c1cc(Cl)ccc1S(=O)(=O)N2S(=O)(=O)c1ccc(C)cc1	105
45	CCOc1cc(C2Nc3ccc(F)cc3[C@H]3OCCC[C@@H]23)cc(Br)c1OC (some centres undefined)	99
46	Cc1[nH]n(-c2ccccc2)c(=O)c1C(c1ccccc1OCc1ccc(F)cc1)c1c(C)[nH]n(-c2ccccc2)c1=O	109
47	CCCCN(CCCC)CC(O)CN(c1cccc2ccccc12)S(=O)(=O)c1ccc(C)cc1 (centres undefined)	112
48	FC(F)C(F)(F)C1=Nc2ccccc2N=C(c2cccs2)C1	108

# Next part.
item	structure	GIV Gai3 FP
49	CCOC(=O)N1CCN(Cc2nc(-c3ccc(N4CCCCC4)nc3)no2)CC1	99
50	CCc1cc(C2CCCN2C(=O)c2cnn3cc(Br)cnc23)on1 (centres undefined)	122
51	Cc1noc(C)c1S(=O)(=O)N1CCC(CC(=O)NCc2ccccc2)CC1	104
52	Cc1cccc(CNC2=NCCNC23CCN(S(=O)(=O)c2cc(C)cc(C)c2)CC3)c1	108
53	Cc1ccc(N2C(=O)C(N3C(=O)c4c(Cl)c(Cl)c(Cl)c(Cl)c4C3=O)C2c2cccc(Br)c2)cc1F (centres undefined)	109
54	Cc1nc2sccn2c(=O)c1NC(=O)c1ccc2c(c1)OCO2	102
55	CCOc1ccc(NC(=O)N2CCCC2c2c(C)noc2C)cc1 (centres undefined)	108
56	CCCc1cc(Sc2ccc(N(C)C)cc2)n2ncnc2n1	101

# Later entries:
item	structure	GIV Gai3 FP
57	CCN(C)S(=O)(=O)c1ccc2c(c1)C(=O)Nc1ccccc1O2	113
58	O=C(NCCCN1CCC(N2CCCCC2)CC1)c1nc(CS(=O)(=O)c2ccccc2)no1	102
59	CCCCNc1nc(SC(CC)C(=O)NCCCOC)nc2ccccc12 (centres undefined)	104
60	CSc1cccc(NC(=O)C2CC(=O)N(c3ccc4c(c3)CCN4C(=O)C3CC3)C2)c1 (centres undefined)	105
61	Cc1cc(N2CCOCC2)n2nc(CN3CCN(c4ccccc4)CC3)nc2n1	100
62	CC(C)C(=O)N1c2ccccc2NC2=C(C(=O)CC(C)(C)C2)C1c1ccc(F)cc1 (centres undefined)	96
63	O=c1n(Cc2ccc(F)cc2)nc2c(S(=O)(=O)N3CCCC3)cccn12	105
64	CCN(c1ccc(OC)cc1)S(=O)(=O)c1cc(-c2cc(C)no2)cs1	102

# Part of the list above in a different format:
57. CCN(C)S(=O)(=O)c1ccc2c(c1)C(=O)Nc1ccccc1O2
  GIV Gai3 FP = 113
63. O=c1n(Cc2ccc(F)cc2)nc2c(S(=O)(=O)N3CCCC3)cccn12
  GIV Gai3 FP = 105

# Next results follow:
item	structure	GIV Gai3 FP
65	CC(=O)OC(OC(C)=O)C12C=CC(O1)C1C(=O)N(c3ccc(C)cc3C)C(=O)C12 (centres undefined)	101
66	CCN(CC)c1cccc(OC(=O)c2cc3c(C)nn(-c4ccccc4)c3s2)c1	110
67	COc1ccccc1N1C(=O)/C(=C/c2ccc(Cl)cc2)C=C1c1ccccc1	78*
68	COc1ccc(-n2nc3c(c2NC(=O)c2ccc(S(=O)(=O)N(C)C)cc2)CS(=O)(=O)C3)cc1	104
69	COc1ccc(C2C3=C(CC(C)(C)CC3=O)OC3=C2C(=O)CC(C)(C)C3)cc1OC(=O)N(C)C	114
70	Cc1nn(-c2ccc(-c3ccccc3)nn2)c(C)c1S(=O)(=O)N1CCN(C)CC1	97
71	N#CC1(C#N)[C@H](c2ccccc2)[C@@H](C(=O)c2ccccc2)N2c3ccc(Cl)cc3C=C[C@@H]21	115
72	CCS(=O)(=O)N1CCCC(C)(C(=O)NCc2ccc(OC)cc2)C1 (centres undefined)	100

# Going on with the list:
item	structure	GIV Gai3 FP
73	COc1ccc(N2CCN(C(=O)c3sc4ncnc(N5CCC(C)CC5)c4c3C)CC2)cc1	107
74	O=C(CSc1nc2ccc(NC(=O)c3ccc(Br)cc3)cc2s1)NC1CC1	112
75	CCOc1cccc2c1OC(c1cc(OC)c(OC)c(OC)c1)N1N=C(c3cccs3)CC21 (centres undefined)	104
76	O=C1c2ccccc2C(=O)N1CC1c2ccccc2CCN1S(=O)(=O)c1ccc(F)c(F)c1 (centres undefined)	115
77	CCOC(=O)CNC(=O)Nc1c(-c2cccnc2)[nH]c2ccccc12	103
78	CCN1CCN(C(=O)CCc2c(C)n(C)c3cc(-c4ccccc4C)nn3c2=O)CC1	104
79	Cc1c2c(nn1-c1ccc(SCc3cccc(F)c3)nn1)CCC2	101
80	CCOc1ccc2nc(SCC(=O)Nc3ccc4c(c3)OCO4)[nH]c2c1	104

# Next section:
item	structure	GIV Gai3 FP
81	CCN(CC)c1ccc(C2C3=C(CC(C)(C)CC3=O)NC3=C2C(=O)CC(C)(C)C3)cc1	100
82	Cc1cccc(N2CCN(c3cc(NCCO)c([N+](=O)[O-])c4nonc34)CC2)c1C	108
83	O=C1COc2ccc(S(=O)(=O)NC3CCCC3)cc2N1Cc1noc(C2CCC2)n1	103
84	c1cc(N2CCSCC2)ncc1-c1noc(CN2CCSCC2)n1	106
85	COc1ccc(OCC(=O)N2c3ccc(C)cc3-c3c(ssc3=S)C2(C)C)cc1	106
86	CC1CCN(S(=O)(=O)c2cccn(Cc3ccccc3)c2=O)CC1	102
87	CC1(C)CC(=O)C2=C(C1)OC1=C(C(=O)CC(C)(C)C1)C2c1ccc(Cl)cc1	107
88	CCCS(=O)(=O)N1CCC(c2cnn(-c3ccccc3)c2)CC1	92

# (listing goes on)
item	structure	GIV Gai3 FP
89	O=C1CC(n2nc(-c3ccc(Cl)cc3)n(-c3ccccc3)c2=S)C2COC1O2 (centres undefined)	111
90	CC(C)c1ccc(C2CC(=O)Nc3c2ccc2ccccc32)cc1 (centres undefined)	102
91	COc1ccc(-c2nc(Cn3nnc(-c4nc(-c5ccc(OC)c(OC)c5)no4)c3C)c(C)o2)cc1	103
92	COc1ccc(N2C(=O)C(N3C(=O)c4c(Cl)c(Cl)c(Cl)c(Cl)c4C3=O)C2c2cc(OC)ccc2OC)cc1 (centres undefined)	119
93	COc1ccc(NC(=O)c2cc3nc(-c4ccc5c(c4)OCO5)cc(C(F)(F)F)n3n2)cc1	107
94	CCOc1ccc(NC(=O)C2CCN(c3cc(Oc4ccc(CC)cc4)ncn3)CC2)cc1	103
95	CN(C)c1ncncc1N1CCC(C(=O)NC2CCCCC2)CC1	108
96	CCOc1cccc2c1OC(c1cccc(Cl)c1)N1N=C(c3ccc(OC)cc3)CC21 (centres undefined)	105

# Further structures:
item	structure	GIV Gai3 FP
97	O=C(Nc1cc(C(F)(F)F)ccc1Cl)c1cc(S(=O)(=O)NCc2ccc3c(c2)OCO3)ccc1F	105
98	CCOC(=O)c1sc2ncnc(N3CCC(C(N)=O)(N4CCCCC4)CC3)c2c1C	112
99	CCSc1nnc(-c2nn(C)c3c2CN(S(=O)(=O)c2ccc(F)c(Cl)c2)CC3)n1C	104
100	O=S(=O)(NCCc1c[nH]c2ncccc12)c1ccc(F)cc1	103
101	N#Cc1c2c(c(N3CCN(c4ccccn4)CC3)n3c1nc1ccccc13)CCC2	111
102	CC(=O)C1=NN(c2cccc(Cl)c2C)C2(S1)c1ccccc1C(c1ccc(C)cc1)=NN2c1ccccc1 (centres undefined)	108
103	Cc1c(Nc2nc3nonc3nc2Nc2c(C)n(C)n(-c3ccccc3)c2=O)c(=O)n(-c2ccccc2)n1C	108
104	O=c1[nH]c2cc(Br)c(S(=O)(=O)NCc3ccc4c(c3)OCO4)cc2[nH]1	104

# More entries follow.
item	structure	GIV Gai3 FP
105	Cc1ccc(N2NC3(CCCCC3)NC2=S)cc1C	106
106	Cc1[nH]n(-c2ccc([N+](=O)[O-])cc2)c(=O)c1C=NCc1ccncc1	101
107	CCOC(=O)C1=CN(Cc2ccc(OC)c(OC)c2)C=C(C(=O)OCC)C1c1ccc(Cl)cc1	101
108	COc1cc(C2CC(=O)Nc3c2cnn3-c2ccc3nnc(C)n3n2)ccc1OCC(C)C (centres undefined)	100
109	COc1cccc2c1OC1(CCCCC1)N1N=C(c3ccc(C)o3)CC21 (centres undefined)	164
110	COc1ccc(-c2noc(N3CCC(C(=O)NC4CC4)CC3)n2)cc1OC	107
111	COc1ccccc1NC(=O)Cn1nc2c3sc(N(C)C)nc3ncn2c1=O	100
112	Cc1cccc(-c2cnc(N3CCC(C(=O)NCCC(C)C)CC3)nc2)c1	100
113	CCOc1ccc(NC(=O)C2CCN(c3c(N4CCCC4)c(=O)c3=O)CC2)cc1	99
114	Cc1cccc(-c2nccc(Oc3ccc(C(=O)Nc4ccccc4)cc3)n2)c1	103
